# Source: PubChem (Johns Hopkins Ion Channel Center)
# KCNQ2 enhance = enhances the rat KCNQ2 potassium channel; hit rate 0.54% among 310,000; CHO-K1 KCNQ2, FluxOR thallium flux fluorescence; active compounds read high; B-score at 10 µM; AID 2239;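 active = fluorescence ratio B-score at least 3 SD of library B-scores, with initial fluorescence B-score within 3 SD, cut at about 5.3 in these data; same plate scores as AID 2156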;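 note: B-score of peak minus minimum over baseline fluorescence ratio after K+ and Tl+ stimulus; positive B-score means potentiation of KCNQ2 with more thallium influx and brighter signal; only the inactives scoring about 0 or higher are listed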
# Target sequence (O88943 whole entry, looked up): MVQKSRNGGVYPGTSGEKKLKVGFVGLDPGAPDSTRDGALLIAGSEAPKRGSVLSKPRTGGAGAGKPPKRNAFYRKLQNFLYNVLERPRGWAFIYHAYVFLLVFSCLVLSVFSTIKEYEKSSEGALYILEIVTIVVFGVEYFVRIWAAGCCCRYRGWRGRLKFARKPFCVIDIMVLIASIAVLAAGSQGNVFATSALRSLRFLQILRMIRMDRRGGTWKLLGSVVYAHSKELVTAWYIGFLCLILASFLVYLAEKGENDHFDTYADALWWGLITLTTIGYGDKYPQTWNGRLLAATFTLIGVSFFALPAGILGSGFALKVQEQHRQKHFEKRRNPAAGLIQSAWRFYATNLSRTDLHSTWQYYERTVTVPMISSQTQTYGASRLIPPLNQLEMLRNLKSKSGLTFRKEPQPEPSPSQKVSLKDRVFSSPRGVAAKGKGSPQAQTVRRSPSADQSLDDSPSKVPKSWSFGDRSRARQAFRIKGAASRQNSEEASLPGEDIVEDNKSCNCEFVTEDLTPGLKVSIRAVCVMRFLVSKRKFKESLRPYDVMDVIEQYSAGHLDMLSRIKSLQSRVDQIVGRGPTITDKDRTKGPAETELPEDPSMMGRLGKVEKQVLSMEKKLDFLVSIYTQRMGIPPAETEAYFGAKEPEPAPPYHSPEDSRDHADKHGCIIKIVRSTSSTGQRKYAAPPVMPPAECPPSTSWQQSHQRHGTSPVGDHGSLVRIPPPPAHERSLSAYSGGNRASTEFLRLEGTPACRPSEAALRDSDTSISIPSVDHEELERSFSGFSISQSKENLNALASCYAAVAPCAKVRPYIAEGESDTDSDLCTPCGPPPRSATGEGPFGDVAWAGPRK
# KCNQ2 enhance baseline = further read-out of KCNQ2 enhance, marked with its call; B-score; compound at 10 µM; measured here: initial fluorescence intensity artifact check;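 brightness before thallium and not channel activity; 0 = typical well and far values either way flag optical interference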
# An asterisk follows results filed as active. A portion of the library (hit frequency here may not be typical).
Compound | KCNQ2 enhance | KCNQ2 enhance baseline
CN=C(Nc1ccc(C(=O)OC)cc1)SC1CC(=O)N(c2ccccc2F)C1=O (centres undefined) | 1.1 | 2.1
Cc1csc(NC(=O)CSc2ccc3nnc(CCNS(=O)(=O)c4ccccc4)n3n2)n1 | 0.1 | 1.2
Cc1[nH]c(=O)c(C(=O)c2ccccc2O)cc1C(=O)O | 0.24 | -0.84
O=C(Nc1ccc(N2CCOCC2)cc1)c1cccnc1 | 1 | 0.92
O=C(N/N=C/c1ccccc1F)c1cccc(NC(=O)c2ccccc2Cl)c1 | 0.12 | -1.7
CC(C)c1ccc(OCc2ccc(C(=O)N3CCCC3)o2)cc1 | 1.4 | 1.6
Cc1cc(C(=O)NNC(=O)NC(C)C)no1 | 0.73 | -0.65
COc1ccc(CNC(=O)COC(=O)c2cnccn2)cc1 | 0.44 | 0.03
O=C(C1=C(O)C(=O)N(CCCn2ccnc2)C1c1cccc(Br)c1)c1ccco1 (centres undefined) | 0.03 | 0.02
Cc1ccc(CN2CCN(CC(=O)N/N=C/c3ccc(C)o3)CC2)cc1 | 1.7 | -0.54
O=C(O)c1ccc(N/N=C/c2ccc3ncccc3c2)cc1 | 0.53 | 2.1
CC(=O)Nc1ccc(S(=O)(=O)NCc2ccccn2)cc1 | 0.87 | 0.42
O=C(NC(=S)N(CCc1ccccc1)CCc1ccccc1)c1ccco1 | 16* | 1.2*
CN1CCN(S(=O)(=O)c2ccc(Nc3ccc(F)cc3)c([N+](=O)[O-])c2)CC1 | 0.26 | -0.1
CC(=O)c1cccc(CN(C)CC2CCCN(CCc3ccccc3C)C2)c1 (centres undefined) | 0.27 | -1.1
O=C(CN1C(=O)c2cccc([N+](=O)[O-])c2C1=O)N1CCN(c2ccc(F)cc2)CC1 | 0.41 | -0.03
COc1cccc(NC(=O)CN(C)C(=O)CSc2nc3ccccc3s2)c1 | 0.25 | 0.5
CCOC(=O)N1CCC(NC(=O)CSCc2nc(-c3ccc(OC)c(OC)c3)oc2C)CC1 | 1.7 | 0.68
O=C(CSc1nc2ccc(Cl)cc2[nH]1)N1CCN(C(=O)c2ccco2)CC1 | 0.35 | -2.2
C=CCNC(=S)NCCO | 0.03 | 0.78
CCCC(=O)Nc1cccc(Oc2nc(C)cc(C)c2C#N)c1 | 0.39 | -0.67
COc1ccc2c([N+](=O)[O-])c(Cl)[nH]c2c1 | 0.97 | -1.4
CC#CCN1C(=O)N[C@@H](c2ccccc2)C(C(=O)OC)=C1C | 1.4 | 0.98
CCOC(=O)Cc1c(Cl)c2ccccc2[nH]c1=O | 0.39 | -0.21
CC(OC(=O)C12CC3CC(CC(O)(C3)C1)C2)C(N)=O (centres undefined) | 1.6 | 0.22
O=C1CCNc2ccc(-c3ccccc3)cc21 | 0.57 | -0.07
COc1ccc([C@@H]2Sc3cc(OC)ccc3N(CCN(C(C)C)C(C)C)C(=O)[C@H]2OC(C)=O)cc1 | 0.64 | 0.22
COC(=O)c1ccc(CN2CCN(Cc3ccccc3)C(CCO)C2)cc1 (centres undefined) | 1.3 | 0.6
COc1ccc(CCNC(=S)Nc2ccc(C)cc2C)cc1 | 0.39 | 1.1
CN(C)/C=C1\C(=O)N(c2ccc([N+](=O)[O-])cc2)N=C1c1ccccc1 | 0.86 | 0
CC(C)N=C(NS(=O)(=O)NC(=O)c1ccccc1)c1ccccc1 | 1.1 | -0.81
Cc1ccc(NC(=O)CN(C)C(=O)CNC(=O)c2cccs2)cc1 | 0.05 | 0.67
COc1ccc(-c2cc(=O)oc3c(C)c(OCC(=O)NCC4CCC(C(=O)O)CC4)ccc23)cc1 (centres undefined) | 1.5 | -1
CC1CC(C)CN(CCC(=O)Nc2ccc3c(c2)CCC3)C1 (centres undefined) | 0.42 | -0.29
CCCC(=O)Nc1nnc(/C=C/c2ccc(OC)cc2)s1 | 0.39 | 0.35
CCC1CCCCN1CCCNC(=O)c1ccc2c(=O)n(CCOC)c(=O)[nH]c2c1 (centres undefined) | 2 | 1.5
CCCCNC(=O)Cn1cnc2ccc(S(=O)(=O)N3CCC(C)CC3)cc2c1=O | 0.49 | 0.82
Cc1cc(C(=O)CN2C(=O)NC3(CCCCC3)C2=O)c(C)n1Cc1ccco1 | 2.2 | -1.1
CCCCCCCCC(=O)N/N=C/c1cccc(Br)c1 | 0.41 | 4.3
COc1ccc(C(=O)NN(C)c2nc(C(F)(F)F)nc3ccccc23)cc1 | 1.2 | 0.3
Cc1[nH]c2ccccc2c1/C=N/NC(=O)CNC(=O)Cc1ccccc1 | 0.21 | -2.3
COc1ccc(OC)c(C(C)NC(=O)Nc2cccc(C(C)=O)c2)c1 (centres undefined) | 1 | -0.02
COc1cc(Cl)c(C)cc1NC(=O)COC(=O)c1cc[n+]([O-])cc1 | 0.88 | 0.1
CC1CC(C(F)F)n2nc(C(=O)Nc3sc4c(c3C#N)CCC(C(C)(C)C)C4)nc2N1 (centres undefined) | 0.31 | -0.84
CCN(C(=O)CN1C(=O)COc2ccc(S(=O)(=O)N3CCOCC3)cc21)c1ccc(OC)cc1 | 0.67 | -0.79
Cc1cc(C)nc(NS(=O)(=O)c2ccc(NC(=O)Nc3ccccc3F)cc2)n1 | 0.11 | -0.26
COc1cc(OC)cc(C(=O)Nc2ccccc2-c2nnn(CC(N)=O)n2)c1 | 0.81 | 0.08
CC1CCC(NC(=O)c2ccc(CNc3c(NC4CCCCC4)c(=O)c3=O)cc2)CC1 (centres undefined) | 0.41 | 1.9
O=C(NCc1cccc(Cl)c1)C1CCN(c2nnc(N3CCCC3=O)s2)CC1 | 1.8 | 0.04
Cc1cc(C)n(-c2nc3ccccc3nc2Nc2ccc3[nH]c(=O)[nH]c3c2)n1 | 0.47 | -0.33

# Some of the entries so far, field by field.
> COc1cc(OC)cc(C(=O)Nc2ccccc2-c2nnn(CC(N)=O)n2)c1
  KCNQ2 enhance: 0.81
  KCNQ2 enhance baseline: 0.08

> COc1ccc(-c2cc(=O)oc3c(C)c(OCC(=O)NCC4CCC(C(=O)O)CC4)ccc23)cc1 (centres undefined)
  KCNQ2 enhance: 1.5
  KCNQ2 enhance baseline: -1

> COc1cccc(NC(=O)CN(C)C(=O)CSc2nc3ccccc3s2)c1
  KCNQ2 enhance: 0.25
  KCNQ2 enhance baseline: 0.5

> COc1ccc(CNC(=O)COC(=O)c2cnccn2)cc1
  KCNQ2 enhance: 0.44
  KCNQ2 enhance baseline: 0.03

# Continued:
Compound | KCNQ2 enhance | KCNQ2 enhance baseline
O=c1cc(CO)[nH]cc1OCc1ccccc1 | 0.69 | -2.1
Cc1cc(NC(=O)CSc2nnc(-c3cccnc3)n2N)no1 | 0.39 | 0.48
COc1cccc(/C=N/NC(=O)C(c2ccncc2)N2CCOCC2)c1 (centres undefined) | 0.5 | 0.97
CCOC(=O)C1CCCN(CCC(=O)Nc2c(C(=O)OC)[nH]c3cc(OC)ccc23)C1 (centres undefined) | 1.6 | 1.3
CCCNC(=O)c1cc(C)no1 | 0.18 | 0.68
CCS(=O)(=O)c1ccc(Sc2nncn2C)c([N+](=O)[O-])c1 | 0.45 | 1.3
NS(=O)(=O)c1cc(C(=O)OCC(=O)Nc2ccc(N3CCCCC3)cc2)ccc1Cl | 1.1 | -0.63
CNc1nc(Nc2ccc(C(C)=O)cc2)nc(OC(C(F)(F)F)C(F)(F)F)n1 | 0.67 | 0.28
COc1ccc(N(CC(=O)N2CCOCC2)S(C)(=O)=O)c(OC)c1 | 1.2 | 2.5
CC(=O)c1cccc(NC(=O)COc2ccccc2)c1 | 0.08 | 0.27
COc1cc(C=O)ccc1OCCOCCOc1ccc(Cl)cc1Cl | 0.33 | 0.1
CO/N=C/CC(=O)c1cnc(-c2ccccc2)s1 | 1.1 | -1.2
COc1cc(C(=O)Nn2c(O)c(C3=c4ccccc4=NC3=O)sc2=S)ccc1O | 0.14 | 3.2
CCNC(=O)NNC(=O)C1CC(c2cccs2)=NO1 (centres undefined) | 1.1 | 0.07
CC1CN(S(=O)(=O)N(C)C)CCN1S(=O)(=O)N(C)C (centres undefined) | 1.5 | 1.3
Cc1cc(C)cc(NC(=O)CSc2nc3[nH]c(=O)cc(O)c3s2)c1 | 0.51 | -0.1
O=C(Nc1ccc(-n2cnnn2)cc1)C(c1ccccc1)c1ccccc1 | 1.4 | 0.95
CCn1ccc(C(=O)N2CCOCC2)n1 | 0.72 | 0.62
O=C(Nc1ccc(S(=O)(=O)NCc2cccnc2)cc1)c1ccccc1Cl | 0.5 | 2.1
Cc1c(C(=O)NCC2CCCO2)oc2ccc3c(c12)C(=O)CC(C)(C)O3 (centres undefined) | 0.93 | -0.11
O=C(NCCNC(=O)c1ccccn1)c1ccccc1 | 1.1 | -0.48
CCOC(=O)c1c(NC(=O)/C=C/C(=O)O)sc(C)c1-c1ccc(C)c(C)c1 | 1.6 | 0.12
Cc1ccc(C(=O)Cn2c(NCCO)nc3ccccc32)cc1 | 0.95 | 0.38
CC(=O)c1cccc(OCC(O)CN2CCN(C(=O)c3ccco3)CC2)c1 (centres undefined) | 0.14 | 1.9
O=C(CNC(=O)c1ccccc1)OCCOc1cccc(Cl)c1 | 0.92 | 0.53
Cc1ccc(/C=N/N2CCN(c3ccccn3)CC2)cc1 | 0.92 | 0.97
O=C(CSc1ccc(Cl)cc1)N1CCOCC1 | 0.17 | -0.32
Cc1c(C(=O)Nc2ccc(F)c(F)c2)oc2ccc(S(=O)(=O)N3CCCCC3)cc12 | 0.01 | -0.24
O=C(N=C1SC2CS(=O)(=O)CC2N1c1ccc(F)cc1F)C1CC1 (centres undefined) | 1.1 | 0.66
COC(=O)c1c(NC(=O)C2CC=CCC2C(=O)O)sc(C)c1C (centres undefined) | 2 | 2.1
CN(CC(=O)Nc1ccc(F)c(F)c1F)C(=O)CCCSc1nc2ccccc2[nH]1 | 1.6 | 2.3
Cc1ccc(Nc2nc(C(=O)N3CCC(C(=O)NCCN4CCOCC4)CC3)cs2)cc1 | 0.27 | -1
O=C(NC(=S)Nc1ccccc1Br)c1ccco1 | 9.5* | -0.51*
CCNC(=S)N=Nc1c(O)n(Cc2ccc(Cl)cc2)c2ccccc12 | 1.4 | 1.1
Cc1cc2c3c(c1)C1(C(=O)N3C(C)(C)CC2C)C(C#N)=C(N)Oc2n[nH]c(C)c21 (centres undefined) | 0.31 | -0.97
N#Cc1cccc(N=c2ssnc2Cl)c1 | 1.1 | -1.3
CC1CCC(=O)N(CCOc2ccccc2)CC1 (centres undefined) | 0.45 | -0.45
CC(=O)Nc1ccc(S(=O)(=O)NCCNS(=O)(=O)c2ccc(NC(C)=O)cc2)cc1 | 0.48 | -0.02
COc1ccc(CNCC(=O)Nc2sccc2C#N)cc1 | 0.38 | 0.24
CS(=O)(=O)N1CCN(C(=O)C(Sc2ccccc2)c2ccccc2)CC1 (centres undefined) | 1.8 | -0.52
COCCN1CCN(Cc2nc(C3(c4ccc(C)cc4)CCCC3)no2)CC1 | 0.85 | 0
N=C(SC1CC(=O)N(c2ccc(F)cc2)C1=O)N1N=C(c2ccccc2)CC1c1ccccc1 (centres undefined) | 1.9 | -0.27
O=C(Nc1ccc(Cl)c(Cl)c1)c1ccccc1NC(=O)C1CC=CCC1C(=O)O (centres undefined) | 0.3 | -0.22
Cn1c(CN2CCC(C(N)=O)CC2)c(C#N)c2ccccc21 | 0.86 | 0
Cc1ccc(N/C(CSC(N)=O)=N/S(=O)(=O)c2ccccc2)cc1 | 1.1 | 0.04
CC(C)(C)c1cc(-c2n[nH]c(=S)n2-c2ccccc2F)n[nH]1 | 5.3* | 1.8*
CCn1c(=O)cc(N2CCN(Cc3ccccc3)CC2)[nH]c1=O | 0.01 | -0.72
CN(C)CCSc1nnc2[nH]c3ccccc3c2n1 | 0.23 | -0.08
O=c1c(-c2ccccc2)c1-c1ccccc1 | 1.4 | -1
Cc1cccc(CCNS(=O)(=O)c2ccc(S(=O)(=O)N3CCC(C)CC3)cc2)c1 | 0.07 | -1.6

# (list continues)
Compound | KCNQ2 enhance | KCNQ2 enhance baseline
COc1ccc(CNC(=O)C2CCN(S(=O)(=O)c3ccc(Br)s3)CC2)cc1 | 0.5 | 0.4
COCC(C)NC(=O)C1CCN(S(=O)(=O)c2ccc3ccccc3c2)CC1 (centres undefined) | 0.41 | 0.89
Cc1cc(Cl)ccc1C(=O)C1CCCN(C(=O)c2ccc3ncccc3c2)C1 (centres undefined) | 0.19 | -2.2
Cc1ccc(S(=O)(=O)NCC(=O)NC2CCCCCC2)cc1 | 0.19 | -1.4
CCCN1CCC(NC(=O)C2CCCCC2C(=O)O)CC1 (centres undefined) | 1.5 | 0.9
COC(=O)CCCC1=CC2=C(c3ccccc3)C(=O)C(C)(OC(=O)C3CCCC3)C(=O)C2=CN1C1CC1 (centres undefined) | 0.22 | -1.1
COc1cccc(CN(C)C(=O)C2CCC(=O)N(Cc3cccc(F)c3)C2)c1 (centres undefined) | 0.27 | 0.23
COc1ccc(S(=O)(=O)NC2CC3CCC2C3)cc1Br (centres undefined) | 0.07 | -0.96
O=P(Cc1ccccc1O)(c1ccccc1)c1ccccc1 | 0.11 | 1.9
Cc1cc(C(C)(C)C)oc1C(=O)O | 0.37 | -0.06
Cc1cccc(OCC(O)CN2CCc3ccccc3C2)c1 (centres undefined) | 1.3 | -0.52
O=C(COC(=O)c1cccs1)NCc1ccccc1 | 0.51 | -0.11
CSCC[C@H](NC(=O)OC(C)(C)C)C(=O)N/N=C/c1c(C)[nH]c(=O)[nH]c1=O | 0.03 | -2.6
Cc1ccc(C)c(OCCC(=O)NNC(=O)Cn2nc(C)cc2C)c1 | 0.95 | 0.11
Cc1ccc(/C=N/N2CCN(c3ccccn3)CC2)o1 | 0.06 | 0
CC(=O)c1cccc(NC(=O)c2cnn3ccccc23)c1 | 0.57 | -1
Cc1nc(CN2CCN(C(=O)NC3(c4ccccc4)CC3)CC2)cs1 | 0.02 | -1.6
O=C(O)CSc1nc2ccccc2n1-c1ccccc1 | 1.1 | 0.31

# Retrieved by compound from the list above (2):
Compound | KCNQ2 enhance | KCNQ2 enhance baseline
Cc1cc(Cl)ccc1C(=O)C1CCCN(C(=O)c2ccc3ncccc3c2)C1 (centres undefined) | 0.19 | -2.2
O=P(Cc1ccccc1O)(c1ccccc1)c1ccccc1 | 0.11 | 1.9
